# Anaer choline gr: growth inhibitors of anaerobic choline-fed gram-negatives, minimal medium, absorbance; AID 1963822, 2024; calls only; Gram-negative bacterium anaerobic choline minimal medium; hits give low values; many inactives read as strong as hits in the columns shown; actives 0.2% (n = 55,000);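 active = growth z-score on choline under -2 at 7 or 20 h with little or no fall on glycerol, limits in tiers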;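 also: stock transfer was 300 nL into about 50 µL; the organism is E. coli; final concentration not given here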
# Anaer choline gr early: recorded beside Anaer choline gr, whose call it bears; z-score; measured here: choline growth z-score, timepoint 1;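 score of optical density at 7 h as mean of two plates; lower means less growth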
# Active calls of the source: *; i = inactive; + = active, no number; & = joins results of further samples. Only part of the results is shown, so the mix of outcomes need not match the whole.
# Below each compound – Anaer choline gr	Anaer choline gr early
Cc1nc2nc(C3CCCCC3)nn2c(C)c1CC(=O)N1CCOCC1
    i	-0.9
NS(=O)(=O)c1ccc(CCNCc2ccc(-c3cc(Cl)cc(Cl)c3)o2)cc1
    i	0.78
CCCCN1CC(=O)N(c2ccc(OCC)cc2)[C@@H]2CS(=O)(=O)C[C@@H]21
    i	1.1
CCOc1nc(-c2ccccc2)ccc1-c1noc(COc2ccccc2)n1
    i	1.3
COc1cc(Nc2c3c(nc4nc(C)nn24)CCC3)cc(OC)c1
    i	-2.3
CC1CCN(c2nc3c(c(=O)n(Cc4ccccc4F)c(=O)n3C)n2C)CC1
    i	-0.94
O=C(NCCCN1CCCC1=O)C1CCN(c2cncnc2N2CCOCC2)CC1
    i	-0.45
CCOC(=O)c1oc2ccc(S(=O)(=O)n3nc(-c4ccc(C(C)(C)C)cc4)cc3N)cc2c1C
    i	-0.02
Cc1cc(F)ccc1Nc1c(-c2ccccc2)c(=O)c1=O
    i	0.42
CCc1ccc(S(=O)(=O)n2ccnc2)cc1
    i	-0.7
CCc1ccc(NC(=O)CN2C(C(=O)OC)=C(c3ccccc3)c3ccccc3S2(=O)=O)cc1
    i	-1.1
CC(CCc1ccccc1)NC(=O)CN1CCCN(Cc2cccc(F)c2)S1(=O)=O (stereo unspecified)
    i	-0.24
Cc1nn(-c2cccc(F)c2)c2sc(C(=O)Oc3ccc4cnccc4c3)cc12
    i	0.09
COc1ccc(CNC(=O)CCn2cnc3onc(-c4cccc(F)c4)c3c2=O)cc1
    i	1.2
CCc1csc(-c2ccc(S(=O)(=O)NCCN3CCCCC3C)s2)n1 (stereo unspecified)
    i	-1.2

# Rewritten with each value named: part of the list above.
compound: COc1cc(Nc2c3c(nc4nc(C)nn24)CCC3)cc(OC)c1
  Anaer choline gr: i
  Anaer choline gr early: -2.3
compound: NS(=O)(=O)c1ccc(CCNCc2ccc(-c3cc(Cl)cc(Cl)c3)o2)cc1
  Anaer choline gr: i
  Anaer choline gr early: 0.78
compound: CCc1csc(-c2ccc(S(=O)(=O)NCCN3CCCCC3C)s2)n1 (stereo unspecified)
  Anaer choline gr: i
  Anaer choline gr early: -1.2
compound: CCc1ccc(NC(=O)CN2C(C(=O)OC)=C(c3ccccc3)c3ccccc3S2(=O)=O)cc1
  Anaer choline gr: i
  Anaer choline gr early: -1.1

# Three entries out of the list, ordered by count of non-hydrogen atoms, rising:
# Below each compound – Anaer choline gr	Anaer choline gr early
COc1cc(Nc2c3c(nc4nc(C)nn24)CCC3)cc(OC)c1
    i	-2.3
Cc1nc2nc(C3CCCCC3)nn2c(C)c1CC(=O)N1CCOCC1
    i	-0.9
Cc1nn(-c2cccc(F)c2)c2sc(C(=O)Oc3ccc4cnccc4c3)cc12
    i	0.09

# Following part:
# Below each compound – Anaer choline gr	Anaer choline gr early
C=CCn1c(SCC(=O)N2CCc3ccccc32)nc2c([nH]c3ccccc32)c1=O
    i	0.04
COC(=O)c1c(C)sc(-c2c(-c3ccc4ccccc4c3)[nH]c3c2c(=O)n(C)c(=O)n3C)c1O
    i	1.4
CC1CCCCN1CCNC(=O)Cn1ccc2c(SCc3ccccc3)nccc21 (stereo unspecified)
    i	-3.3
Cc1cc(N2CCC(C(=O)NC3CCCC3)CC2)n2nc(-c3ccc(Cl)cc3)cc2n1
    i	-1.3
Cc1[nH]c(C(=O)NC2CCCCC2)c(C)c1S(=O)(=O)N1CCCC1
    i	0.35
CN1CCN(c2ccc3nnc(C4CCC4)n3n2)CC1
    i	-2
COc1cccc(C2Nc3c(C)cc(C)cc3[C@H]3OCCC[C@@H]23)c1 (stereo partly specified)
    i	0.59
C=Cn1c2ccccc2c2nc3ccccc3nc21
    i	1.6
C=CCn1c(=O)c(C(=O)Nc2ccc(C(C)C)cc2)c(O)c2ccccc21
    i	2.8
Clc1ccccc1-c1noc(-c2cc(-c3ccccc3)n[nH]2)n1
    i	1.2
CC(=O)Nc1ccc(-c2noc(C3CCN(C(=O)CNC(=O)c4ccccc4)CC3)n2)cc1
    i	-0.47
CC(Oc1ccc(C(C)(C)C)cc1)C(=O)Nc1onc2c1CCCC2 (stereo unspecified)
    i	-0.09
Cc1ccc(C)c(C(=O)Cn2c(=O)n3nc(C)nc3c3ccccc32)c1
    i	0.19
c1ccc(-c2nc(-c3cccc(-c4csc(C5CC5)n4)c3)no2)cc1
    i	3
CN(C)S(=O)(=O)c1ccc2c(c1)cc(C(=O)NCc1ccc(F)cc1)n2Cc1ccncc1
    i	0.25

# The list goes on:
# Below each compound – Anaer choline gr	Anaer choline gr early
Cc1c(NC(=O)c2c(-c3ccccc3)c(-c3ccccc3)n[nH]c2=O)c(=O)n(-c2ccccc2)n1C
    i	0.96
CC(C)c1nnc(NC(=O)COc2ccccc2-c2nc(-c3ccccc3)no2)s1
    i	-1.2
Cn1cc(CCC(=O)N2CCc3ccccc32)c2ccccc21
    i	0.78
Cc1cc2c(cc3n2CC(C)(C(=O)NC2CCCCC2)N(Cc2ccc(F)cc2)C3=O)o1 (stereo unspecified)
    i	-1.3
CCS(=O)(=O)N1CCCC1c1ccc(C)cc1 (stereo unspecified)
    i	-0.3
O=S(=O)(c1cccc(F)c1)N1CCC2(CC1)Nc1ccccc1-n1cccc12
    i	-0.14
C=Cc1ccc(CN(c2nc3nc(C)c(Cl)c(C)n3n2)S(=O)(=O)c2ccccc2)cc1
    i	0.8
Cc1cc2n(n1)CCCN2C(=O)CCC(=O)NCCc1ccc(Cl)cc1
    i	-0.3
CCCn1c(=O)oc2cc(NC(=O)Nc3cccc(C)c3)ccc21
    i	-0.15
CCCCn1c(CN2CCC(C)CC2)nc2cc(NC(C)=O)ccc21
    i	-2.6
Cc1c(C)c2c(c(C)c1O)CCC(C)(COc1ccc(CC3SC(=O)NC3=O)cc1)O2 (stereo unspecified)
    i	0.02&0.37
COc1ccc(N2CCN(C(=O)Cn3ccc4c(c(C)nn4-c4ccccc4)c3=O)CC2)cc1
    i	-0.78
Cc1ccccc1NC(=O)COc1ccccc1-c1nc(-c2ccccc2)no1
    i	-1.1
Cn1c(=O)c2ccn(CC(=O)N3CCN(c4ccccn4)CC3)c2n(C)c1=O
    i	-0.54
O=c1c2ccccc2n2c(=O)n(Cc3cccc(Cl)c3)nc2n1CCc1ccccc1
    i	0.37

# Next part:
# Below each compound – Anaer choline gr	Anaer choline gr early
Cc1ccccc1C(=O)c1ccc(Nc2ccc(Br)cc2N)cc1Cl
    i	1.1
Cc1ccc(-n2nc(N3CCCN(C(=O)C4CCC4)CC3)ccc2=O)cc1C
    i	1.2
O=C(NCc1ccc(-c2nn3cnnc3s2)cc1)c1cccnc1
    i	-0.32
CCOC(=O)CNC(=O)Nc1c(-c2ccc(Cl)cc2)[nH]c2ccccc12
    i	1.5
O=C(NCc1cccc(Br)c1)c1cccn1-c1nnc(N2CCOCC2)s1
    i	-0.18
CC1CC(C)CN(CC2CCN(C(=O)Nc3cc(F)ccc3F)CC2)C1 (stereo unspecified)
    i	-0.76
CN(C)S(=O)(=O)c1ccc(-c2noc(C(=O)NCc3ccc(Br)cc3)n2)cc1
    i	1.3
Cc1ccc(-n2ccc(=O)c(-c3nc(-c4ccccc4Cl)no3)n2)cc1
    i	-0.25
CCCCN(C)C(=O)C1CCC(Cn2c(=O)c3sccc3n(CC(=O)N(CC)CC)c2=O)CC1 (stereo unspecified)
    i	-0.6
O=C1COc2ccc(S(=O)(=O)N3CCN(C(=O)C4CC(=O)N(c5ccccc5)C4)CC3)cc2N1 (stereo unspecified)
    i	0.1
COc1ccc2cc3n(c2c1)CC(C)(C(=O)NC1CCCCC1)N(CC1CCCO1)C3=O (stereo unspecified)
    i	-0.87
COc1ccc2[nH]c3c(c2c1)CCN(C(=O)c1ccccc1OC)C3c1ccc(F)cc1 (stereo unspecified)
    i	0.1
Cc1cc(C)c2c(CC(=O)Nc3cccnc3)coc2c1
    i	-0.23
Cc1nn(-c2ccc(F)cc2)c(C)c1S(=O)(=O)NCC1CCCO1 (stereo unspecified)
    i	0.05
Cc1cc(-n2c(C)nc3ccccc3c2=O)ccc1NC(=O)C(C)Oc1ccccc1 (stereo unspecified)
    i	-0.38

# Further compounds.
# Below each compound – Anaer choline gr	Anaer choline gr early
Cc1ccc(Cc2nc(CCNC(=O)Nc3cccc(Br)c3)n[nH]2)cc1
    i	-0.35
COc1ccc(NC(=O)CN2C(=O)CCc3cc(S(=O)(=O)N4CCCC4)ccc32)cc1OC
    i	0.52
Cc1cc(-c2nn3c(-c4ccc(F)cc4)nnc3s2)no1
    i	1.4
COc1cc(-c2noc(-c3ccccc3)n2)ccc1OCC(=O)Nc1ccccc1C
    i	-0.88
Clc1ccc(-c2noc3ncnc(NCCN4CCOCC4)c23)cc1
    i	0.49
COc1ccc(OC)c(-c2csc(Nc3cc(C)ccn3)n2)c1
    i	-0.01
COc1ccc(-c2nc(CS(=O)(=O)c3ccc(C)cc3)no2)c(C)c1
    i	-0.33
O=C(Cn1cc(-c2nnc(CN3CCCCC3)o2)c2ccccc21)NCc1ccccc1Cl
    i	0.59
Cc1ccc(S(=O)(=O)N2CCC3(CC2)NCCN=C3NCc2ccc(F)cc2)c(C)c1
    i	-0.28
CCc1cc(C2CCCN2C(=O)Cn2cc(Cl)cn2)on1 (stereo unspecified)
    i	-1.6
NS(=O)(=O)c1ccc(CCNCc2ccc(-c3ccc(Br)cc3)o2)cc1
    i	0.43
O=C(Nc1ccc2c(c1)OCO2)c1cccc(Nc2ccnc(-c3cccc(F)c3)n2)c1
    i	1.1
CCCCNC(=O)Cn1c(=O)n(CCCCC(=O)NC(C)C)c(=O)c2ccccc21
    i	0.03
Cc1ccc(Cn2c(=O)c3ccccc3n3c(=O)n(CC(=O)c4cc(C)ccc4C)nc23)cc1
    i	3
CN
    i	-4.3

# Whole records as entered above.
# Clc1ccc(-c2noc3ncnc(NCCN4CCOCC4)c23)cc1 is entered as Anaer choline gr: i; Anaer choline gr early: 0.49
# O=C(Nc1ccc2c(c1)OCO2)c1cccc(Nc2ccnc(-c3cccc(F)c3)n2)c1 is entered as Anaer choline gr: i; Anaer choline gr early: 1.1

# (continued)
smiles	Anaer choline gr	Anaer choline gr early
COc1ccc(-c2nc(CSc3nc4ccccc4n4c(C(C)C)nnc34)c(C)o2)cc1	i	-0.17
Cc1cccc(Nc2c(C(=O)N3CCOCC3)cnc3ccccc23)c1	i	-0.11
COCCCNC(=O)CCCN1C(=O)COc2ccc(C)cc21	i	0.52
Cc1ccc(CN2C(c3ccc(F)c(F)c3)Nc3ccccc3S2(=O)=O)cc1 (stereo unspecified)	i	-0.97
CCN1CCN(C(=O)C2(c3ccccc3F)CC2)CC1	i	-0.26
Cc1cccc(-c2nccc(N3CCC(C(=O)NC4CC4)CC3)n2)c1	i	0.61
O=C1C(=O)N(C2CCN(C(=O)c3cccnc3)CC2)CCN1Cc1ccc(F)cc1	i	-0.21
COC(=O)c1sccc1S(=O)(=O)N1CCc2ccccc2C1	i	-0.76
O=C(Nc1ccc2c(c1)OCCO2)N1CCN(Cc2nc3cccnc3n2-c2cccc(F)c2)CC1	i	-0.09
CC(C)OCCCNC(=O)C1c2c(n(C)c3ccccc23)SCC(=O)N1CCc1ccsc1 (stereo unspecified)	i	-1.3
Cc1c(C(=O)NC2CCCC2)oc2ccc(S(=O)(=O)N3CCC(C)CC3)cc12	i	0.25
O=C(c1ccc2c(c1)OCO2)N1CCC(Nc2ncnc3c2CCC3)C1 (stereo unspecified)	i	0.23
Cc1cc(C)c(C(=O)N2CCCC(C(=O)NCCN(C)C)C2)[nH]1 (stereo unspecified)	i	0.76
Cc1cccc(NC(=O)CC2CCN(C(=O)c3nnc(C(=O)Nc4ccc(F)cc4)s3)CC2)c1C	i	2.2
Cc1cc(C)cc(N2C=C(C(=O)N3CCCC3)S(=O)(=O)c3ccccc32)c1	i	0.54

# Continued:
smiles	Anaer choline gr	Anaer choline gr early
COc1ccccc1C(=O)N1CCC(c2noc(-c3ccc(S(=O)(=O)N4CCCC4)cc3)n2)CC1	i	1.2
Cc1nn(C)c2nc(OC(C)C(=O)N3CCc4ccccc43)cc(C(F)(F)F)c12 (stereo unspecified)	i	0.83
CC(C)CC(N)=O	i	0.03&-0.02
Cc1sc2ncnc(NCCC3=CCCCC3)c2c1S(=O)(=O)N1CCCCC1	i	0.54
Cn1c2c(c(=O)n(C)c1=O)C(c1cccc(Br)c1)CC(=O)N2 (stereo unspecified)	i	0.63
COC(=O)c1ncoc1-c1ccccc1C(=O)NCc1ccccc1	i	-0.81
COc1ccccc1-n1c(=O)c2c3c(sc2n(Cc2ccc(C)cc2)c1=O)CN(C(C)=O)CC3	i	-0.95
Cc1ccc2nc(CSc3nnc(C)s3)cc(=O)n2c1	i	-0.64
CCCCC/C=C\C/C=C\C/C=C\CCCCC(=O)O	+	-3.2*
CC(C)CCNC(=O)c1ccc2c(=O)n(-c3cccc(F)c3)c(SCC(=O)c3c[nH]c4ccccc34)nc2c1	i	0.25
O=C(Cc1noc2ccccc12)Nc1ccc(F)cc1Cl	i	1.1
CCCc1nc2ccccc2n1CC(O)COc1c(C)cccc1C (stereo unspecified)	i	1
O=S(=O)(c1cccn2c(SCc3cccc(F)c3)nnc12)N1CCc2ccccc2C1	i	0.07
Cc1nn(-c2nc3ccccc3n2C)c2c1C(c1cccc(F)c1)CC(=O)N2 (stereo unspecified)	i	1.3
OC(CCN1CCCCC1)(c1ccccc1)C1C[C@@H]2C=C[C@H]1C2 (stereo partly specified)	i	0.01

# Continuation.
smiles	Anaer choline gr	Anaer choline gr early
CCc1cc(C2CCCN2C(=O)c2cccs2)on1 (stereo unspecified)	i	0.76
Cn1c(=O)n(C)c2cc(N3CCCC3)c(NC(=O)c3sc4ccccc4c3Cl)cc21	i	-1.2
CC1(C2CC2)NC(=O)N(c2ccc(Br)cc2)N1 (stereo unspecified)	i	-1.5
O=C(Cc1nnc(SCc2ccccc2)n1-c1ccccc1)Nc1ccccc1	i	0.02
CC(C)(C)OC(=O)CSc1nc2c(-c3ccccc3)c[nH]c2c(=O)[nH]1	i	-0.03
CC(C)CCN=C1Nc2ccccc2NC12CCCCCC2	i	-1.3

# Screening results from PubChem BioAssay.
